# Source: PubChem
# AmpC nodet inh = inhibitors of E. coli AmpC beta-lactamase without detergent. actives 1.8% (n = 71,000). Potency, µM (highest dose often 28.7 µM), inactives show at the highest dose activity change, negative = inhibition. P00811. AID 585. AmpC nitrocefin hydrolysis, absorbance 480 nm, no detergent; potencies from a single point are estimates; active = falling curve, for most hits resting on a single point; inconclusive = weak or doubtful change; inactive = flat or rising curve; further: % of control where 0% means no effect; about half of the hits show no inhibition at the top dose; a quarter of the inactives give rising signals
# Target sequence (P00811 whole entry, looked up): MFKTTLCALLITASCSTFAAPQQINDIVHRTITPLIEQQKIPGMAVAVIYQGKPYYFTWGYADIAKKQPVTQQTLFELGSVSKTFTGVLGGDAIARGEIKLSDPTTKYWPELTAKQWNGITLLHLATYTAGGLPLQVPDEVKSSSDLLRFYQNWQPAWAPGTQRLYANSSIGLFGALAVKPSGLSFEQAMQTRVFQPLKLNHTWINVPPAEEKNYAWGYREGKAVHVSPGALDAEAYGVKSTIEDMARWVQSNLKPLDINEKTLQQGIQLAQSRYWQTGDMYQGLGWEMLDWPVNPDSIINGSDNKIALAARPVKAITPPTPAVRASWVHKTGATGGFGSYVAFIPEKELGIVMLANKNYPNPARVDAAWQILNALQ
#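 AmpC in 20 mM phosphate buffer pH 7.0 was preincubated 15 min at room temperature with compounds. Nitrocefin (800 uM stock) was then added and hydrolysis followed at 480 nm every 20 s for 4 min.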
# Active calls of the source: *; & = joins results of further samples; [ ] = another dose, or the depositor's remark. Potency means the concentration at half of the fitted maximal effect. These rows are one share of the data; the hit share may differ from the screen's.
SMILES,AmpC nodet inh
Cc1ccc(S(=O)(=O)C2(C(=O)Nc3ccc4c(c3)OCO4)CC2)cc1,4µM*[single pt active]
CS(=O)(=O)N1CCC2(CC1)CN(c1cccc(-c3ccccc3)c1)C2,100%
O=C(CCCn1c(=S)[nH]c2ccc(Br)cc2c1=O)N1CCN(c2ccccn2)CC1,-25%
O=c1nc2ccccc2c2n1C[C@H](CN1CCN(c3ccccc3)CC1)N2,6%
COc1ccc(S(=O)(=O)N2CCCC2C(=O)NCc2cccs2)cc1 (centres undefined),5%
CCCCOC(=O)CCc1n[nH]c(=O)[nH]c1=O,-16%
CCCCn1c(SCC(=O)Nc2cc(C)[nH]n2)nc2ccsc2c1=O,-9%
Cc1ccc(S(=O)(=O)NCCCN(C)C)cc1,-4%
c1ccc(CN2CCN(c3nc4ccccc4n4cnnc34)CC2)cc1,47%
c1cc2n(c1)-c1c(ccc3c1OCO3)CNC2c1ccc2c(c1)OCO2 (centres undefined),3%
O=C(C1CC1)N1CCc2cc(Br)cc(S(=O)(=O)NCC3COc4ccccc4O3)c21 (centres undefined),-7%
Cn1c(=O)cc(SCC(=O)Nc2ccccn2)c2ccccc21,5%
CCc1nnc(NC(=O)c2ccc(S(=O)(=O)N(CC)Cc3ccccc3)cc2)o1,7%
O=C(CCn1nnc2ccccc21)N1CCN(c2ccccc2)CC1,22%
CCCCOC(=O)C(C#N)c1nc2ccccc2nc1N1CCN(Cc2ccc3c(c2)OCO3)CC1 (centres undefined),20%
O=C(COC(=O)c1ccco1)NCC1CCCO1 (centres undefined),87%
COc1ccc(OCC(=O)N2CCN(C(=O)COc3ccc(Br)cc3)CC2)cc1,106%
c1csc(Cn2c(-c3cccs3)nc3ccccc32)c1,-6%
Cc1onc(-c2ccccc2)c1C(=O)NC(C)C1CCCO1 (centres undefined),18%
C=CCN1C(=O)CN=C1Nc1cc(C)cc(C)c1,-6%
COc1cccc(-c2csc3nnc(SCC(=O)c4ccc(NC(C)=O)cc4)n23)c1,12%
CCCn1c(SCC(=O)N2CCCc3ccccc32)nnc1-c1ccco1,36%
Cc1c(CNC(=O)c2cnn3c2NC(c2ccccc2)CC3C(F)(F)F)cnn1C (centres undefined),106%
O=C(NCc1cccnc1)C1CCCN(S(=O)(=O)c2ccc(Cl)cc2)C1 (centres undefined),15%
O=C(Nc1ccon1)c1ccc(Br)o1,1%
Cc1cc(C)cc(OCC(=O)Nc2cccc(-c3nc4ncccc4o3)c2)c1,4%
CCn1cc(C(=O)NCCCOC)c(=O)c2cc(S(=O)(=O)N(C)C)ccc21,3.2µM*[single pt active]
CC1Cc2nc(SCC(N)=O)n(C)c(=O)c2S1 (centres undefined),-11%
CCOC(=O)Cc1csc(NC(=O)c2cccs2)n1,2%
Cc1ccccc1-n1c(C)nnc1SCc1nc2ccccc2s1,13%
CC1=NNC(=S)NCCCN2CCN(CCCNC(=S)NN=C(C)C=NNC(=S)NCCCN3CCN(CCCNC(=S)NN=C1)CC3)CC2,6%[5.75 µM]
Cn1c(CCNC(=O)c2ccccc2)nc2ccccc21,-6%
Cc1nc2sc(C(c3ccco3)N3CCN(c4ccc(F)cc4)CC3)c(O)n2n1 (centres undefined),5%
O=S(=O)(c1ccccc1)c1nc(-c2ccco2)oc1NCc1ccco1,-8%
CCCN1C(=O)c2cc(C(=O)O)ccc2C1O (centres undefined),-5%
CCOC(=O)N1CCN(C(=O)C2CCC(CNS(=O)(=O)c3ccc(Cl)cc3)CC2)CC1 (centres undefined),107%
c1ccc(-c2noc(-c3ccc4ccccc4c3)n2)nc1,52%
COC(=O)c1ccc(NC(=O)Cn2nnc3ccccc32)cc1,-14%
COCCn1c(C)cc2c(c1=O)C(c1ccccc1F)C(C#N)=C(N)O2 (centres undefined),0%
CN1[C@@H]2CC(OC(=O)[C@H](CO)c3ccccc3)C[C@@H]1[C@H]1O[C@H]12 (some centres undefined),4%
CCc1cc2ccc(OC)cc2nc1SCC(=O)Nc1cc(C)on1,-5%
Cc1cccc(CNc2ncncc2-c2ccccc2C)c1,41%
CC(C)(C)C(=O)/C=c1\[nH]c(=O)/c(=C\c2ccc(C#N)cc2)s1,-24%
Cc1ccc2c3c(c(SCC(=O)Nc4nonc4C)nc2c1)CCCC3,-8%
COc1ccc(NS(=O)(=O)c2ccc(OCC(=O)N3CCCC3)cc2)cc1,14%
Cc1ccccc1NC1C=CS(=O)(=O)C1 (centres undefined),-3%
Cc1ccc(S(=O)(=O)c2cc3c(=O)n4cccc(C)c4nc3n(Cc3ccco3)c2=N)cc1C,43%
CSc1nnc(Cn2c(=O)sc3ccccc32)n1C,4µM*[single pt active]
Cc1ccc(S(=O)(=O)N2CCC(C(=O)N[C@H](C(=O)NCc3ccco3)C(C)C)CC2)cc1,2%
O=C(CN1C(=O)c2ccccc2C1=O)NCC1COc2ccccc2O1 (centres undefined),14%
COC(=O)c1cc(Br)c(=O)n(CC(C)C)c1,0%
COc1ccc(OC)c(S(=O)(=O)Nc2cnc3ccccc3c2)c1,19%
O=c1[nH]c(N2CCN(c3ccccc3)CC2)nc2c1CCC2,10%
CCC(C)(C)n1nnnc1C(c1ccccc1OC)N1CCSCC1 (centres undefined),41%
O=C(c1cc(C(F)(F)F)cc(C(F)(F)F)c1)N1CCC[C@@]2(CCN(c3ccccc3)C2)C1,43%
COc1ccc(-c2cc3nc(C)c(CCC(=O)NCc4ccco4)c(C)n3n2)c(OC)c1,114%
CCN1CCN(Cc2ccc(OC(F)(F)F)cc2)CC1,2%
CCOC(=O)c1c(NC(=O)CSc2nnnn2-c2ccc3c(c2)OCO3)sc(C)c1C,-16%
Cc1ccc(S(=O)(=O)Nc2nc3ccc(S(C)(=O)=O)cc3s2)cc1,-17%
CCOCCCNC(=O)c1c[nH]c2ccc(S(=O)(=O)Nc3cccc(OC)c3)cc2c1=O,12%
# (listing goes on)
SMILES,AmpC nodet inh
C/C=C/CSc1nc2c(c(=O)[nH]c(=O)n2C)n1Cc1ccc(C)cc1,10%
Cc1nc(NCCCN2CCOCC2)c2oc3ccccc3c2n1,4%
COc1ccc(N2CSC3=C(C#N)C(c4cc(OC)ccc4OC)CC(=O)N3C2)c(OC)c1 (centres undefined),41%
CCC(CC)C(=O)NCCc1ccc(OC)c(OC)c1,7%
Cc1ccc(NC(=O)CCNS(=O)(=O)c2ccc3c(c2)oc(=O)n3C)c(C)c1,12%
O=C(CCN1CCCCC1)c1csc2ccccc12,2%[5.75 µM]
O=C(OCCN1CCCCC1)c1c[nH]c2ccccc12,70%&5%
CCCc1[nH]nc2c1C(C1CC=CCC1)C(C#N)=C(N)O2 (centres undefined),-7%
Cc1onc(-c2ccccc2Cl)c1-c1nc(-c2ccccn2)no1,28%
Cc1ccc(-c2cc(C(F)(F)F)c(C#N)c(SCCC#N)n2)o1,3%
N[C@H](CCl)C(=O)O,-3%
CCCn1c(C)nc2c(NCCOC)nc(C)nc21,3%
CCOc1cccc(C(=O)Nc2cccc(-c3nnc(-c4ccccc4)o3)c2)c1,-9%
CC(C)COc1ccc(-c2nnn(CC(=O)N3CCCC3)n2)cc1,72%
Nc1cc(Cl)ccc1Cl,-6%
O=C(NCN1CCCCC1)c1cccnc1,-13%
O=C(CN1C(=O)C2CC=CCC2C1=O)NC1=NCCS1 (centres undefined),-8%
Clc1ccccc1-c1nc(NC2CCNCC2)c2ccccc2n1,4%
Cc1ccc(-n2ncc3c(=O)n(CC(=O)NC4CCCC4)cnc32)cc1C,-8%
CC(C)CNC(=O)c1ccccc1NC(=O)CN(c1ccc2c(c1)OCCO2)S(C)(=O)=O,28%
COc1ccc(-c2nc3cnc(Nc4cccc(OC)c4)nc3n(C[C@H]3CCCO3)c2=O)cc1,0%
CN(C)c1ccc(CN(C(=O)COc2ccc(Br)cc2)C2CCS(=O)(=O)C2)cc1 (centres undefined),99%
COc1ccccc1NC(=O)CCc1nc(-c2cccs2)no1,-3%
Cc1cccc(OCc2nnc(SCc3nc4cc(C(F)(F)F)ccc4c(=O)[nH]3)o2)c1,-16%
c1ccc(-c2cccc(N3CC4(CCNCC4)C3)c2)cc1,70%
CCC(=Nc1ccc(OC)cc1OC)c1c(O)n(C)c(=O)n(C)c1=O,74%
CC1CC(C)CN(CCCNC(=O)Cn2ncc3c(=O)oc4ccccc4c32)C1 (centres undefined),3.2µM*[single pt active]
COc1ccc(NC(=O)CSc2nc3ccccc3c(=O)n2CCNC(C)=O)c(OC)c1,103%
Cn1cnc2nc3n(c2c1=O)CCC3,-3%
CC(c1ccccc1)C1C(C#N)=C(N)OC2=C1C(=O)CC(C)(C)C2 (centres undefined),5%
CCCCC(=O)Nc1cccc(-c2cn3ccsc3n2)c1,0%
CN=C(NC#N)NCCSC[C@H]1N=CN=C1C,-2%[12.8 µM]
COc1ccc(OC)c(NC(=O)CSc2nc3cccnc3n2C)c1,24%
Cc1ccc(-n2c(SCC(=O)NCc3ccco3)nnc2-c2cccnc2)c(C)c1,66%
Cn1c(=O)n(C)c2cc(/C=N/n3cnnc3)ccc21,-8%
CN(C)CCNS(=O)(=O)N(C)C,-1%[5.75 µM]
Cc1nc(CC(=O)N2CCN(S(=O)(=O)c3ccccc3C#N)CC2)cs1,4%
Cc1cccc(N2CCN(C(=O)CS(=O)(=O)Cc3nc(-c4ccccc4F)oc3C)CC2C)c1 (centres undefined),121%
Nc1c(S(=O)(=O)c2cccs2)c2nc3ccccc3nc2n1CC1CCCO1 (centres undefined),-4%
CCOc1cc(C(=O)N2CCN(c3ccccc3)CC2)cc(OCC)c1OCC,73%
O=c1c(-c2ccc(F)cc2)nc2cncnc2n1Cc1ccc(F)cc1,-3%
CC1CCCC(NC(=O)CN(C)S(=O)(=O)c2cccc3cccnc23)C1C (centres undefined),62%
CC(C)OC(=O)CSc1nnc(Cc2ccccc2)n1C,-8%
N=c1c2c3c(sc2ncn1CCN1CCOCC1)CCCCC3,-2%
Cc1noc(C)c1C(=O)N1CCC2(CCCN(c3ccncc3)C2)CC1,4%
Cc1ccccc1-c1noc(-c2ccc(O)cc2)n1,-7%
COc1ccccc1C(=O)NCCN1CCN(C(=O)c2ccccc2OC)CC1,24%
O=C1CCc2cc(S(=O)(=O)N3CCC(C(=O)Nc4nccs4)CC3)ccc2N1,-2%
Cc1ccc(CCNC(=O)C2CCCN(S(=O)(=O)c3cccc4nsnc34)C2)cc1 (centres undefined),1%
NC(=O)Nc1cccc(C(F)(F)F)c1,9%
CC(=O)c1cccc(NC(=O)Nc2cccnc2)c1,-9%
O=C1c2ccccc2C(=O)N1CCCn1nnc(-c2ccc(N3CCOCC3)cc2)n1,56%
C=CCN(C(=O)c1ccccc1)c1ccc(OC)cc1,-1%
O=S(=O)(c1ccc(-c2cn3ccccc3n2)cc1)N1CCOCC1,3%
Cc1ccsc1/C=c1\sc2ncnn2c1=O,1%
CCOC(=O)c1c(NC(C)=O)no[n+]1[O-],2%
CCC(=O)N1CCN(c2nc(C)nc3sc(C)c(C)c23)CC1,62%
CCOC(=O)CCCNC(=O)COC(=O)c1cc(C)cc(C)c1,34%
Cc1ccc(N2CC(C(=O)NCc3cccs3)CC2=O)cc1 (centres undefined),-1%
CCn1c(SCC(=O)n2nc(C)cc2C)nnc1-c1ccc2c(c1)OCO2,37%

# 20 of the compounds above, bar-delimited.
smiles | AmpC nodet inh
O=c1c(-c2ccc(F)cc2)nc2cncnc2n1Cc1ccc(F)cc1 | -3%
CC1CCCC(NC(=O)CN(C)S(=O)(=O)c2cccc3cccnc23)C1C (centres undefined) | 62%
CC(C)OC(=O)CSc1nnc(Cc2ccccc2)n1C | -8%
N=c1c2c3c(sc2ncn1CCN1CCOCC1)CCCCC3 | -2%
Cc1noc(C)c1C(=O)N1CCC2(CCCN(c3ccncc3)C2)CC1 | 4%
Cc1ccccc1-c1noc(-c2ccc(O)cc2)n1 | -7%
COc1ccccc1C(=O)NCCN1CCN(C(=O)c2ccccc2OC)CC1 | 24%
O=C1CCc2cc(S(=O)(=O)N3CCC(C(=O)Nc4nccs4)CC3)ccc2N1 | -2%
Cc1ccc(CCNC(=O)C2CCCN(S(=O)(=O)c3cccc4nsnc34)C2)cc1 (centres undefined) | 1%
NC(=O)Nc1cccc(C(F)(F)F)c1 | 9%
CC(=O)c1cccc(NC(=O)Nc2cccnc2)c1 | -9%
O=C1c2ccccc2C(=O)N1CCCn1nnc(-c2ccc(N3CCOCC3)cc2)n1 | 56%
C=CCN(C(=O)c1ccccc1)c1ccc(OC)cc1 | -1%
O=S(=O)(c1ccc(-c2cn3ccccc3n2)cc1)N1CCOCC1 | 3%
Cc1ccsc1/C=c1\sc2ncnn2c1=O | 1%
CCOC(=O)c1c(NC(C)=O)no[n+]1[O-] | 2%
CCC(=O)N1CCN(c2nc(C)nc3sc(C)c(C)c23)CC1 | 62%
CCOC(=O)CCCNC(=O)COC(=O)c1cc(C)cc(C)c1 | 34%
Cc1ccc(N2CC(C(=O)NCc3cccs3)CC2=O)cc1 (centres undefined) | -1%
CCn1c(SCC(=O)n2nc(C)cc2C)nnc1-c1ccc2c(c1)OCO2 | 37%

# Continuation.
SMILES,AmpC nodet inh
OCC(CO)(CO)N=Cc1cc(Br)ccc1O,-6%
COc1ccccc1NC(=O)N1CCn2c(nc3ccccc32)C1,-14%
N=C1C(c2ccccc2)=C(O)CN1c1ccc2c(c1)OCO2,-10%
COCCn1c(N)c(C(=O)OCc2ccccc2)c2nc3ccccc3nc21,71%
O=C(CN1C(=O)c2ccccc2S1(=O)=O)NCCSC1CCCCC1,2%
CCCCOCP(=O)(CCCC)COCCCC,48%
